RE007 growth inh: less growth of the S. pombe RE007 Vpr strain. S. pombe RE007 Vpr strain, BacTiter-Glo ATP luminescence, 24 h; control for the full effect not named in the record. Potency, µM (top dose mostly 92.2 µM), inactives show top-dose activity change, negative = less growth. actives 0.21% (n = 360,000); active = well fitted falling curve with a large enough effect; inconclusive = small, poorly fitted or top-dose-only effect; inactive = no such curve, though single readings can be large or run the other way;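 further: on the % scale 0 is the no-effect control and ±100 the full control effect; nearly all actives have a fitted effect of over 50% in size; the assay follows cell death caused by Vpr and the record does not say whether a fall means rescue or toxicity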
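Fission yeast strain RE007, carrying one chromosomally integrated HIV-1 vpr copy, was seeded at OD 0.01 in PMG+AL medium with 23 nL pinned compound. After 24 h at 30 °C and 99% humidity, viability was read by BacTiter-Glo luminescence.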
Cruzain inh noDet: blocks cruzain activity in detergent-free assay | Potency, µM, inactives show max response, negative = inhibition, actives largely listed as inhibitors | AID 1476 | P25779 | actives 2.3% (n = 200,000) | purified cruzain, Z-FR-AMC fluorescence, no detergent;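 further: plate controls were enzyme without inhibitor for no effect and buffer without enzyme for full effect; nearly all actives have a fitted effect of over 40% in size; top concentration of the series not given in the record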
Target sequence (P25779 123-467 limits assumed): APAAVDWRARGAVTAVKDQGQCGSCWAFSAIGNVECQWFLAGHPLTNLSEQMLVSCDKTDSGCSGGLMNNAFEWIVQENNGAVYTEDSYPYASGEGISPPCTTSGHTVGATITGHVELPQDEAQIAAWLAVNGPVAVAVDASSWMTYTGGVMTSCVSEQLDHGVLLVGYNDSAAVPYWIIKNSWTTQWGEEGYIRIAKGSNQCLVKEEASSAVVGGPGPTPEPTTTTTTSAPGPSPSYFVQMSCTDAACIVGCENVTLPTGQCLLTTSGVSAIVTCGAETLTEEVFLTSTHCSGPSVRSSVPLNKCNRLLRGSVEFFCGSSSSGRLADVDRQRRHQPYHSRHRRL
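Purified cruzain at 1.5 nM, pre-incubated 15 min with compound at room temperature in 100 mM sodium acetate pH 5.5, 5 mM DTT, 0.00005% Triton X-100. Reaction started with 2 uM Z-FR-AMC; AMC fluorescence increase over 60 s gives rate.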
NS1 function inh: influenza NS1 inhibition. S. cerevisiae slowed by influenza A NS1, growth recovery by OD600. AID 2326. Potency, µM (top dose mostly 46.1 µM), without a hit: top-dose activity, positive = more growth. actives 0.4% (n = 270,000); active means well fitted rising curve with a large enough effect; inconclusive means small, poorly fitted or top-dose-only effect; inactive means no such curve, though single readings can be large or run the other way; further: nearly all actives have a fitted effect of over 50% in size
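Recovery from NS1-induced slow growth read by OD600 in budding yeast switched to galactose assay medium (pH 6.0, -URA) at 1:100 dilution. Compound 23 nl per well; the matching strain lacking NS1 serves as control.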
SARS PLpro yeast: blocks SARS-CoV papain-like protease in a yeast assay; S. cerevisiae expressing SARS-CoV PLpro, growth rescue; control for the full effect not named in the record; actives 0.19% (n = 330,000); AID 485353; Potency, µM (highest dose often 32.9 µM), inactives show at the top dose activity, positive = growth rescue; active means well fitted rising curve with a large enough effect; inconclusive means small, poorly fitted or top-dose-only effect; inactive means no such curve, though single readings can be large or run the other way; further: 0% is about no effect; nearly all actives have a fitted effect of over 55% in size; growth read by luminescence after 48 h
Cruzain Triton: inhibitors of Trypanosoma cruzi cruzain with detergent. P25779. purified cruzain, Z-FR-AMC fluorescence, 0.01% Triton. Potency, µM, for inactives: max response, negative = inhibition, usual class: inhibitors. actives 0.43% (n = 200,000). AID 1478;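 further: plate controls were neutral wells for no effect and buffer without enzyme for full effect; nearly all actives have a fitted effect of over 40% in size; top concentration of the series not given in the record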
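Detergent-containing arm of a paired screen for aggregation-based inhibition: 0.01% Triton X-100 present. Cruzain at 1.5 nM cleaved 2 uM Z-FR-AMC at pH 5.5 with 5 mM DTT; AMC fluorescence gain over 60 s measured activity.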
2A StopGo: lowers the luciferase signal of an FMDV 2A StopGo reporter; actives 1.2% (n = 410,000); Potency, µM (series often up to 57.9 µM), for inactives: at the highest dose signal change, negative = less light; human cells with a luciferase reporter of 2A StopGo recoding; control for the full effect not named in the record; active = well fitted falling curve with a large enough effect; inconclusive = small, poorly fitted or top-dose-only effect; inactive = no such curve, though single readings can be large or run the other way; tested in HEK293T cells; further: on the % scale 0 is the no-effect control and ±100 the full control effect; nearly all actives have a fitted effect of over 45% in size; luciferase light after 4 h
Lassa entry inh: inhibitors of Lassa virus binding or cell entry; Lassa virus pseudotype entry inhibition, cell reporter; control for the full effect not named in the record; actives 1.2% (n = 300,000); Potency, µM (highest dose often 37.9 µM), without a hit: at the highest dose activity change, negative = inhibition, actives largely listed as inhibitors; active means well fitted inhibition curve with a large enough effect; inconclusive means small, poorly fitted or top-dose-only effect, or effect the other way; inactive means flat fitted curve, though single readings scatter; tested in HEK293 cells; further: on the % scale 0 is the no-effect control and ±100 the full control effect; nearly all actives have a fitted effect of over 50% in size; luciferase read-out
Marburg entry inh: Marburg virus entry inhibition | Potency, µM (series often up to 37.8 µM), for the others: at the highest dose activity change, negative = inhibition, usual class: inhibitors | actives 1.8% (n = 300,000) | Marburg virus pseudotyped entry inhibition, cell reporter; control for the full effect not named in the record; about a third of the inactives were read at about 46 µM; active = well fitted inhibition curve with a large enough effect; inconclusive = small, poorly fitted or top-dose-only effect, or effect the other way; inactive = flat fitted curve, though single readings scatter; tested in HEK293 cells; about a fifth of its hits are not listed in these tables; further: on the % scale 0 is the no-effect control and ±100 the full control effect; luciferase read-out
Active calls of the source: *; [ ] = remark or other dose. Unless noted, the call rests on the fitted dose curve; in most records, active means well fitted curve in the direction sought with a large enough effect; inconclusive means small, poorly fitted or top-dose-only effect, or another doubt; inactive means no such curve, though single readings can be large; an effect the other way counts as inactive or inconclusive. Potency means the concentration at half of the fitted maximal effect.

Results for Cc1[nH]nc2c1C(c1ccc(F)cc1)C1=C(CC(C)(C)CC1=O)N2 (stereo not given) ?
RE007 growth inh: 15.2%; Cruzain inh noDet: -9.0%; NS1 function inh: -3.2%; SARS PLpro yeast: 3.8%; Cruzain Triton: -0.3%; 2A StopGo: -1.9%; Lassa entry inh: -12.1%; Marburg entry inh: inconclusive

Results for CCc1ccc(NC(=S)NC2CC3CCCC(C2)N3Cc2cccs2)cc1 (stereo not given) ?
RE007 growth inh: -9.5%; Cruzain inh noDet: 4.5%; NS1 function inh: -1.7%; SARS PLpro yeast: -0.3%; Cruzain Triton: -1.7%; Lassa entry inh: inconclusive; Marburg entry inh: inconclusive

Results for Cc1ccc(-c2noc(-c3ccccc3NC(=O)C3CC(=O)N(c4ccc(C)cc4)C3)n2)cc1 (stereo not given) ?
Cruzain inh noDet: 19.3%; Cruzain Triton: -0.8%; 2A StopGo: 16.0%; Lassa entry inh: 8.8%[46.1 µM]; Marburg entry inh: -12.1%[46.1 µM]

What do the screens show for `CCOC(=O)C1CCCN(C(=O)CCCn2nnnc2CN2CCOCC2)C1` (stereo not given)?
RE007 growth inh: 15.6%; NS1 function inh: 2.7%; SARS PLpro yeast: -1.0%; 2A StopGo: 21.3%

What do the screens show for `Cc1ccc(-c2nnc(Nc3ccc(Br)cc3)c3ccccc23)cc1S(=O)(=O)N1CCOCC1`?
Cruzain inh noDet: -17.8%; Cruzain Triton: -1.8%; 2A StopGo: -0.7%; Lassa entry inh: -5.9%[46.1 µM]

How did Cc1ccc(C2(C)NC(=O)N(CC(=O)Nc3ccccc3C(=O)NC3CCCC3)C2=O)cc1 (stereo not given) do in these assays?
RE007 growth inh: 11.2%; SARS PLpro yeast: 1.1%; 2A StopGo: -10.1%; Lassa entry inh: -14.4%; Marburg entry inh: -10.6%

Results for N#CCCN(CCN1CCCC1)S(=O)(=O)c1ccc(-c2ccc([N+](=O)[O-])cc2)cc1 ?
RE007 growth inh: -8.5%; NS1 function inh: 10.5%; SARS PLpro yeast: 11.4%; 2A StopGo: 0.5%; Lassa entry inh: -1.3%; Marburg entry inh: inconclusive

Results for Cc1nc(CN(C)Cc2nc(Cc3ccccc3Cl)no2)cs1 ?
RE007 growth inh: -8.6%; NS1 function inh: -2.1%; SARS PLpro yeast: 0.7%; 2A StopGo: 6.5%

Results for O=C(/C=C/c1ccco1)Nc1ccc(C(=O)N2CCOCC2)cc1 ?
RE007 growth inh: -10.4%; Cruzain inh noDet: -5.1%; NS1 function inh: 8.7%; SARS PLpro yeast: -11.9%; Cruzain Triton: -11.8%; 2A StopGo: -4.2%; Lassa entry inh: 22.3%; Marburg entry inh: 3.3%

Results for Fc1cnc(N2CCOCC2)nc1N1CCc2ccccc21 ?
RE007 growth inh: inconclusive; Cruzain inh noDet: -6.4%; NS1 function inh: -4.5%; SARS PLpro yeast: 1.3%; Cruzain Triton: -10.4%; 2A StopGo: 0.6%; Lassa entry inh: 15.5%; Marburg entry inh: inconclusive

How did O=C(COc1ccc(Cl)cc1)Nc1nnc(S(=O)(=O)N2CCc3ccccc32)s1 do in these assays?
Cruzain inh noDet: -6.5%; Cruzain Triton: -1.7%; 2A StopGo: -19.6%; Lassa entry inh: -0.1%[46.1 µM]

How did COc1cc(NC(=O)NCc2ccncc2)cc(OC)c1OC do in these assays?
RE007 growth inh: -14.2%; Cruzain inh noDet: 9.1%; NS1 function inh: -7.9%; SARS PLpro yeast: 1.0%; Cruzain Triton: 3.0%; Lassa entry inh: 6.3%; Marburg entry inh: 21.6%

How did COc1cccc(NC(=S)N/N=C2\CC3CCC2(C)C3(C)C)c1 (stereo not given) do in these assays?
RE007 growth inh: 4.9%; SARS PLpro yeast: 0.8%; 2A StopGo: 41.2%[activator]; Lassa entry inh: 9.1%[46.1 µM]; Marburg entry inh: inconclusive

Results for CCOc1ccc(OCC)c(NC(=O)CCC(=O)N2CCOc3ccccc32)c1 ?
Cruzain inh noDet: 15.6%; Cruzain Triton: 0.5%; 2A StopGo: -2.3%; Lassa entry inh: 18.1%[46.1 µM]; Marburg entry inh: -2.1%[46.1 µM]

What do the screens show for `O=C(O)c1cc(S(=O)(=O)O)cc(Nc2c3ccccc3nc3ccccc23)c1O`?
RE007 growth inh: -5.3%; NS1 function inh: -54.9%; SARS PLpro yeast: -12.0%; 2A StopGo: -7.1%; Lassa entry inh: 26.1%; Marburg entry inh: 1.5%[46.1 µM]

How did O=c1[nH]c(CN2CCN(c3ccc([N+](=O)[O-])cc3)CC2)nc2ccsc12 do in these assays?
RE007 growth inh: 9.7%; Cruzain inh noDet: -20.5%; NS1 function inh: 16.3%; SARS PLpro yeast: 1.4%; Cruzain Triton: -15.9%; 2A StopGo: 31.6µM*; Lassa entry inh: -2.3%; Marburg entry inh: -27.8%

Results for COCCn1c(SCC(=O)Nc2ccccc2OC)nc2c([nH]c3ccccc32)c1=O ?
RE007 growth inh: 1.7%; NS1 function inh: 6.0%; SARS PLpro yeast: 2.4%; 2A StopGo: -12.1%

Results for COc1cccc(NC(=O)CSc2nnc(-c3cccc(OC)c3)o2)c1 ?
Cruzain inh noDet: inconclusive; Cruzain Triton: -6.7%; 2A StopGo: 20.3%; Lassa entry inh: inconclusive; Marburg entry inh: inconclusive

How did Cc1ccc(N2CCN(S(=O)(=O)c3ccc4oc(=O)ccc4c3)CC2)c(C)c1 do in these assays?
RE007 growth inh: -7.0%; NS1 function inh: -51.3%; SARS PLpro yeast: -7.5%; 2A StopGo: 2.2%; Lassa entry inh: inconclusive; Marburg entry inh: -27.3%[46.1 µM]

What do the screens show for `COc1ccc(CCNC(=O)CSc2cccc3cccnc23)cc1OC`?
RE007 growth inh: 8.1%; SARS PLpro yeast: -1.1%; 2A StopGo: -12.5%; Lassa entry inh: 21.6%[46.1 µM]; Marburg entry inh: inconclusive

How did CCCNC(=O)NC(C(=O)OC)C12CC3CC(CC(C3)C1)C2 (stereo not given) do in these assays?
RE007 growth inh: -5.1%; Cruzain inh noDet: -2.5%; NS1 function inh: -8.7%; SARS PLpro yeast: -0.6%; Cruzain Triton: -2.9%; 2A StopGo: -17.7%; Lassa entry inh: inconclusive; Marburg entry inh: 1.0%

Results for O=C(NCCC1=CCCCC1)c1cc(S(=O)(=O)N2CCOCC2)c(Cl)cc1Cl ?
RE007 growth inh: 7.8%; SARS PLpro yeast: -1.3%; 2A StopGo: -18.6%; Lassa entry inh: -8.0%; Marburg entry inh: 28.2%

Results for CCN(CC)CCNC(=O)CN1N=C(c2ccc(OC)cc2)CCC1=O ?
Cruzain inh noDet: 4.2%; Cruzain Triton: -0.7%; 2A StopGo: -11.4%; Lassa entry inh: 26.9%[46.1 µM]

How did COc1ccc(CN(Cc2ccc(C(=O)O)cc2)C(=S)Nc2cc(C)cc(C)c2)cc1OC do in these assays?
RE007 growth inh: -1.8%; SARS PLpro yeast: 2.2%; 2A StopGo: -1.5%; Lassa entry inh: 1.0%; Marburg entry inh: -2.0%

What do the screens show for `Cc1c(CCC(=O)O)c(=O)oc2c(C)c3occ(-c4ccc(Cl)cc4)c3cc12`?
RE007 growth inh: -13.6%; NS1 function inh: 5.3%; SARS PLpro yeast: -3.2%; 2A StopGo: inconclusive; Lassa entry inh: -40.4%; Marburg entry inh: -1.3%

What do the screens show for `CN(Cc1ccccc1)Cc1ccccc1OC(=O)N(C)C`?
RE007 growth inh: -9.2%; Cruzain inh noDet: -11.2%; NS1 function inh: 4.3%; SARS PLpro yeast: inconclusive; Cruzain Triton: 4.0%; 2A StopGo: -8.7%; Lassa entry inh: -9.9%; Marburg entry inh: -18.1%

What do the screens show for `COc1ccc2c(/C=N/NS(=O)(=O)c3ccc(C)cc3)c[nH]c2c1`?
RE007 growth inh: 8.5%; NS1 function inh: -2.2%; SARS PLpro yeast: 1.2%; 2A StopGo: 62.3%[activator]; Lassa entry inh: -23.4%; Marburg entry inh: -10.1%[46.1 µM]

How did O=C(CN1CCOCC1)NCCc1ccccc1 do in these assays?
RE007 growth inh: -8.9%; NS1 function inh: 2.6%; SARS PLpro yeast: -6.6%; 2A StopGo: 22.3%; Lassa entry inh: 8.3%; Marburg entry inh: 5.8%

Results for CCC(C)(NC(=O)c1ccccn1)C(=O)NC1CCCC1 (stereo not given) ?
RE007 growth inh: 1.6%; SARS PLpro yeast: 4.9%; 2A StopGo: 8.4%; Lassa entry inh: -2.3%; Marburg entry inh: -3.3%[46.1 µM]

How did Cc1noc(C)c1CSCC(=O)Nc1nc2ccc(F)cc2s1 do in these assays?
RE007 growth inh: 1.7%; SARS PLpro yeast: -2.8%; 2A StopGo: 4.4%; Lassa entry inh: 7.0%[46.1 µM]; Marburg entry inh: -4.5%

Results for Cc1ccc(C(=O)NCC(=O)OCC(=O)NCCNC(=O)COC(=O)CNC(=O)c2ccc(C)cc2)cc1 ?
RE007 growth inh: 4.4%; SARS PLpro yeast: 1.6%; 2A StopGo: -7.1%; Lassa entry inh: -8.5%; Marburg entry inh: -6.5%

How did O=C(CSc1nnnn1C1CCCC1)NCCc1ccccc1 do in these assays?
RE007 growth inh: -2.1%; NS1 function inh: -36.5%; SARS PLpro yeast: -1.0%; 2A StopGo: 0.0%; Lassa entry inh: 0.4%; Marburg entry inh: inconclusive

How did OC(CN1c2ccccc2Sc2ccccc21)Cn1nnc2ccccc21 (stereo not given) do in these assays?
RE007 growth inh: 2.2%; Cruzain inh noDet: -20.7%; NS1 function inh: -149.8%; SARS PLpro yeast: -7.4%; Cruzain Triton: -18.2%; 2A StopGo: inconclusive; Lassa entry inh: -2.1%; Marburg entry inh: inconclusive

What do the screens show for `CCOC(=O)CCCNC(=O)COC(=O)c1cc2ccccc2cc1O`?
RE007 growth inh: 14.0%; Cruzain inh noDet: 4.4%; NS1 function inh: -53.9%; SARS PLpro yeast: -5.0%; Cruzain Triton: 2.2%; 2A StopGo: 0.0%; Lassa entry inh: -3.6%; Marburg entry inh: 11.7%[46.1 µM]

How did CN1N=C(C(=O)N2CCCC(C(=O)c3cccc(C(F)(F)F)c3)C2)CCC1=O (stereo not given) do in these assays?
RE007 growth inh: 2.3%; NS1 function inh: -0.3%; SARS PLpro yeast: 0.5%; 2A StopGo: 28.3%; Lassa entry inh: -14.5%[46.1 µM]; Marburg entry inh: -26.1%[46.1 µM]

Bioassay records: PubChem, National Center for Advancing Translational Sciences (NCATS)
